Sa helicase inh – blocks Staphylococcus aureus DNA helicase. purified S. aureus helicase, fluorescence unwinding assay; about half of the hits fall short of the stated cut. inhibition, %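 (tested at about 80 µM)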. 120,000 tested, 0.05% active;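 active = both duplicates at 50% or more, or one of them with a favoured structure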;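 note: 0% = mean of negative control wells and 100% = mean of positive control wells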
MgrA DNA FP – alters Staphylococcus aureus MgrA binding to DNA | 84,000 tested, 0.13% active | fluorescence polarization | inhibition, %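 (about 10 µg/mL by stock and volumes)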;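 active = above 50% in either of two replicates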;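 note: 0% = protein plus DNA without compound and 100% = DNA alone without protein; higher means less MgrA bound to DNA so lower polarization; one replicate is shown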
Starred values were filed as active, the others as inactive; nt = not tested or not shown; & = joins results of further samples. An excerpt; count on the stated rates, not on these rows.

The first 7 records, ahead of the listing:
SMILES	Sa helicase inh	MgrA DNA FP
COc1ccc(CCN(C)c2ccc(S(=O)(=O)N(C(C)C)C(C)C)cn2)cc1OC	-10.0	nt
CCCN1CCC(NCc2cccc(C(F)(F)F)c2)CC1	2.0	-0.1
CC1CCN(CCCNC(=O)c2ccc(/C=C3\Oc4ccccc4NC3=O)cc2)CC1	13.0	-1.2
CCOC(=O)C1=C(C)N=C2c3ccccc3C(=O)C2C1c1ccc(Br)cc1 (stereo not drawn)	0.0	1.9
Cc1ncc(CN2CCSCC2)c(CO)c1O	nt	0.5
Cc1ccc(CN(C)C(=O)Cc2ccc3c(c2)OCCO3)o1	29.0	nt
O=C(COC(=O)c1cc(O)c(O)c(O)c1)c1ccc(C2CCCCC2)cc1	20.0	nt

The list itself, from the first entry:
SMILES	Sa helicase inh	MgrA DNA FP
COc1ccc(CCN(C)c2ccc(S(=O)(=O)N(C(C)C)C(C)C)cn2)cc1OC	-10.0	nt
CCCN1CCC(NCc2cccc(C(F)(F)F)c2)CC1	2.0	-0.1
CC1CCN(CCCNC(=O)c2ccc(/C=C3\Oc4ccccc4NC3=O)cc2)CC1	13.0	-1.2
CCOC(=O)C1=C(C)N=C2c3ccccc3C(=O)C2C1c1ccc(Br)cc1 (stereo not drawn)	0.0	1.9
Cc1ncc(CN2CCSCC2)c(CO)c1O	nt	0.5
Cc1ccc(CN(C)C(=O)Cc2ccc3c(c2)OCCO3)o1	29.0	nt
O=C(COC(=O)c1cc(O)c(O)c(O)c1)c1ccc(C2CCCCC2)cc1	20.0	nt
O=C(NCCc1ccccc1)c1ccc(CS(=O)c2cccc(Cl)c2)o1 (stereo not drawn)	15.0	nt
Cc1oc(-c2ccccc2Cl)nc1CSCC(=O)NC1CC1	16.0	nt
Brc1ccc(NC2=NCCCCC2)cc1	-1.0	nt
CN1CCN(CCCNC(=O)c2cn(C)c(=O)c3c2c2ccccc2n3C)CC1	45.0	nt
O=c1oc2cc3occ(-c4ccccc4)c3cc2c2c1CCC2	1.0	2.5
CCN(CC)S(=O)(=O)c1ccc(N2CC(C(=O)N3CCOCC3)CC2=O)cc1 (stereo not drawn)	7.0	nt
CC(=O)N1CCC(N(Cc2cccnc2)C(=O)Nc2ccc(Cl)cc2)CC1	12.0	nt
CCc1ccc(OCC(=O)OCC(=O)N2CCc3ccccc32)cc1	10.0	-1.8
C=CCNS(=O)(=O)c1cccc2cc(C(=O)O)c(O)cc12	1.0	-2.5
COc1ccc(C2CC(c3ccccc3)=NN2C(=O)CSc2nnc(-c3cccnc3)n2N)cc1 (stereo not drawn)	-41.0	nt
c1ccc(Cc2nc3c4c5c(sc4ncn3n2)CCCC5)cc1	13.0	-1.1
CN(CC(=O)Nc1cc(C(F)(F)F)ccc1N1CCOCC1)S(=O)(=O)c1ccc(Cl)cc1	-3.0	nt
COc1cc2c(cc1OC)C(C(=O)NC1CCCCCC1)C(c1cccs1)N(C)C2=O (stereo not drawn)	10.0	-0.2
CC(C)Cc1ccc(C(C)c2nc3ccccc3n2C)cc1 (stereo not drawn)	14.0	-0.6
S=c1n(CN2CCCCC2)nc(-c2ccccc2)n1-c1ccccc1	1.0	-1.8
CCCn1cnc2c(cnn2-c2ccccc2C)c1=O	-14.0	nt
O=C(COCc1cc(-c2ccco2)on1)N1CCCC1	-10.0	nt
O=c1onc(-c2ccc(Cl)cc2)n1Cc1ccc(F)cc1	10.0	-1.2
CCOC(=O)[C@@H](CCc1ccccc1)NC(C)C(=O)N1CCC[C@@H]1C(=O)O (stereo partly drawn)	nt	0.4
COc1ccc(C2CC(=O)N(C)C3=C2C(=O)CC(C)(C)C3)c(OC)c1 (stereo not drawn)	15.0	2.9
CCOc1ccc(NC(=O)CN2CCN(CC(=O)Nc3ccc(OCC)cc3)CC2)cc1	5.0	nt
C=CCN(C1CCCCC1)S(=O)(=O)c1ccc2c(c1)oc(=O)n2C	13.0	0.5
COc1ccc(OCC(O)CNS(=O)(=O)c2ccccc2)cc1 (stereo not drawn)	nt	-0.7
O=C1CC(c2ccccc2)CN1C(=O)c1cccnc1 (stereo not drawn)	4.0	4.7
O=C(Nc1ccccc1)c1ccc(S(=O)(=O)N2CCCC2)cc1	20.0	-0.6
Cc1cc2ncc(-c3ccnc(SCCS(=O)(=O)c4ccccc4)n3)c(C)n2n1	nt	-0.9
CC(O)(CN1CCOCC1)c1ccc(Br)cc1 (stereo not drawn)	17.0	-1.3
CC(=O)Nc1cccc(NC(=O)N2CCOCC2)c1	20.0	3.0
CCN1CCN(C2=NC(C(=O)Nc3ccccc3)CC(=O)N2)CC1 (stereo not drawn)	8.0	4.5
CCCCCCCCc1ccc(C(=O)O)cc1	nt	1.2
Cc1c(CN(C)C)c2c(n1Cc1ccccc1)C(=O)c1ccc(Br)cc1-2	14.0	-1.1
O=c1c(-c2ccc3c(c2)OCCCO3)coc2cc(O)cc(O)c12	-1.0	nt
N#Cc1c(N)nc2c(sc3nc4c(cc32)CCC4)c1-c1ccc(Br)cc1	-8.0	-0.5
Cn1c(S(=O)(=O)Cc2ccc(Br)cc2)nc2ccccc21	15.0	1.8
CSCCC(C(=O)O)N1C(=O)/C(=C/c2ccc(O)cc2)SC1=S (stereo not drawn)	-171.0	nt
Cc1ccc(Cn2c(=N)n(CC(=O)O)c3ccccc32)cc1	10.0	0.8
O=C(O)c1cc2cc3ccccc3nc2s1	6.0	16.7
O=c1cc(NCc2ccccc2)[nH]nc1-c1ccccc1	nt	-1.0
CC(=O)N(c1ccc2oc3c(c2c1)CCCC3)S(=O)(=O)c1ccc(F)cc1	21.0	nt
Cc1nn(Cc2c(F)c(F)c(F)c(F)c2F)c(C)c1NC(=S)NCc1ccco1	5.0	0.3
Nc1cccc2ncccc12	-11.0	nt
O=C(O)c1ccc(N2CCOc3ccccc32)s1	0.0	nt
O=C(Cn1cnc2ccccc2c1=O)N1CCCc2ccccc21	4.0	nt
CN(CCNc1nc(-c2ccccc2)no1)C1CCCCC1	13.0	nt
O=C(NCc1cc(F)cc2c1OCOC2)C1CC1	nt	-2.4
O=C1S/C(=C2\C(=O)N(Cc3ccccc3)c3ccccc32)C(=O)N1Cc1ccccc1	nt	-0.8
Cc1cc(C)cc(N2C(=O)CC(c3ccc4c(c3)OCO4)C3=C2CCCC3=O)c1 (stereo not drawn)	18.0	-3.5
CCO/C=C1/SC(=S)N(CCc2ccc(Cl)cc2)C1=O	nt	12.1
Cn1c(=S)n(CN2CCC(C(N)=O)CC2)c2ccccc21	7.0	-1.1
Cc1ccc(-c2ccc(OCC(=O)NC3CCCC3)cc2)cc1	1.0	-1.8
CC(C)(Oc1ccc(Cl)cc1)C(=O)NCc1ccc2c(c1)OCO2	26.0	0.7
CC(C)NC(=O)Cn1ncn2c(cc3ccccc32)c1=O	5.0	nt
CN1CCN(C(=O)CCCCl)CC1	-7.0	-3.0

Next compounds follow:
SMILES	Sa helicase inh	MgrA DNA FP
O=C(NC1C2CC3CC(C2)CC1C3)C1CCCCC1 (stereo not drawn)	-2.0	4.3
Cn1ncc(Br)c1-c1nc2ccccc2[nH]1	-1.0	-1.6
CCN(CC)S(=O)(=O)c1ccc(NC(=O)CSc2nc3ccccc3o2)cc1	11.0	nt
Cc1cc(Cc2ccccc2)c(C)cn1	-2.0	nt
O=C(OCc1nc2ccccc2s1)c1ccccc1	16.0	4.6
COC(=O)C(C)Sc1nc2c([nH]c3ccccc32)c(=O)n1-c1cccc(Cl)c1 (stereo not drawn)	-15.0	nt
COc1ccc(Cn2c(=O)sc3ccccc32)cc1	8.0	-0.5
CC1CCC2C(=O)N(c3ccc(Cl)cc3)C(=O)C2C1 (stereo not drawn)	nt	0.3
O=C(N/N=C\c1cc(Cl)ccc1O)c1ccc(S(=O)(=O)N2CCCCC2)cc1	-3.0	2.8
O=c1c2ccccc2nc(SCc2ccc(Cl)cc2)n1CC1COc2ccccc2O1 (stereo not drawn)	4.0	1.2
CN(C)c1ccc(C(=O)NC2CCSC2=O)cc1 (stereo not drawn)	3.0	2.7
CCn1c(=O)c(=O)n(CC)c2cc(N3CCCCC3)c(NC(=O)c3ccccc3)cc21	21.0	nt
Cc1c(C(=O)N2CCOCC2)cc(-c2ccccc2)n1-c1ccccc1	nt	-2.3
N#CC1=C(N)Oc2c(c(=O)oc3ccccc23)C1	0.0	-0.5
COC(=O)C1=CN(C2CC2)C=C(C(=O)OC)C1c1ccccc1	1.0	1.1
COc1ccccc1C/C(N)=N/OC(=O)c1ccccc1	6.0	0.8
O=C(C[n+]1cc(-c2ccccc2)n2c1CCC2)c1ccccc1	-1.0	-1.6
COc1ccccc1NC(=O)CSc1cc(C(F)(F)F)cc(C(F)(F)F)c1	nt	1.5
CCN(C(=O)Nc1cc(NC(=O)N(CC)C2CCCCC2)c(C)nc1C)C1CCCCC1	0.0	nt
COc1ccc(/C=C/C2=CCN(Cc3ccc(OC)cc3)CC2)cc1	0.0	nt
N#Cc1ccccc1NC(=O)COC(=O)C1CCCCC1	-18.0	nt
Cn1c(=O)c2conc2n(C)c1=O	6.0	nt
Cc1cc(C(=O)NCc2ccc(N3CCOCC3)cc2)nn1C	3.0	nt
CN(CCC#N)c1ccc(C2Nc3ccccc3O2)cc1 (stereo not drawn)	nt	0.2
COc1cccc(NC(=O)Cc2ccccc2)c1	nt	-0.5
O=C(CCOc1ccc(F)cc1)N1CCSCC1	nt	-0.2
O=C(COC(=O)c1ccc(S(=O)(=O)Nc2ccccc2)cc1)Nc1nnc(-c2ccccc2)o1	14.0	nt
COc1ccc(CC(=O)Nc2ccc(N3CCOCC3)cc2)cc1S(=O)(=O)N1CCOCC1	16.0	nt
NCCN1CCCC1=O	10.0	4.3
CCn1cc(C(=O)Nc2ccccc2)c(=O)c2ccc(C)nc21	5.0	0.9
CC(=O)Nc1ccccc1OCC(N)=O	-26.0	nt
CN(c1ccc(Oc2ncnc3c2oc2ccccc23)cc1)S(=O)(=O)c1ccc(Cl)cc1	-7.0	nt
COC(=O)c1ccc(C2N=C(c3cccc(OC)c3)CC(c3ccccc3O)N2)cc1 (stereo not drawn)	8.0	1.8
CCOC(=O)N1CCN(C(=O)c2cccn3c(=O)c4cc5ccccc5cc4nc23)CC1	-70.0	18.0
O=S(=O)(Nc1ccc(F)c(F)c1)c1ccc(F)cc1	nt	2.3
S=C(c1ccc2c(c1)OCO2)N1CCCC1	3.0	-2.2
CN(C(=O)CN1C(=O)c2ccccc2S1(=O)=O)c1ccccc1C(=O)O	-7.0	nt
CS(=O)(=O)c1ccc(-c2csc(-n3nccc3C(F)(F)F)n2)cc1	-6.0	nt
CN1CCN(c2ccc(CNS(=O)(=O)c3cccc4nonc34)cc2)CC1	nt	1.9
COCCNC(=O)c1cccc(OC(C)C)c1	6.0	0.6
CCOC(=O)c1ccc(OC(=O)/C=C/c2cccs2)cc1	nt	-1.1
COc1ccc(C(=O)c2ccc(-c3cccs3)s2)cc1	nt	-0.5
CN1CCC(OC(=O)Cc2ccc(Cl)cc2)CC1	0.0	0.9
COc1ccc(-c2cc(N)c(C(N)=O)s2)cc1	nt	-2.9
COc1ccc(CCNC(C)C(=O)NC2(C#N)CCCCC2)cc1OC (stereo not drawn)	-11.0	nt
O=C(Nc1ccccc1)c1csc2ccc(Cl)cc12	nt	22.2
COc1ccc(CCNC(=O)CCN2C(=O)C(C)Oc3ccc(C)cc32)cc1OC (stereo not drawn)	14.0	nt
Cc1cccc(NC(=O)Cn2nnc(C(=O)NCc3cccs3)c2N)c1C	-25.0	nt
CC(O)c1nc2ccccc2n1CN1CCN(c2ccccc2)CC1 (stereo not drawn)	5.0	nt
Cc1nnc(Oc2ccc(Cl)cc2Cl)c2ccccc12	8.0	-1.0
CCN(CC)c1nc(SCC(=O)O)nc(N(CC)CC)n1	7.0	-1.8
CCCn1c(SCC(=O)Nc2cc(C)on2)nc2sc3c(c2c1=O)CCCC3	2.0	nt
COC(=O)C1=CN(CC23CC4CC(CC(C4)C2)C3)C=C(C(=O)OC)C1c1ccc(F)cc1	13.0	-0.4
O=C1N/C(=C/c2ccccc2)C(=O)N1c1cccc(Cl)c1	4.0	1.4
CC1CCN(S(=O)(=O)c2ccc(C(=O)Oc3ccc4c(c3)OCO4)cc2)CC1	2.0	nt
CCN(C(=O)c1ccco1)c1nc(CC(=O)Nc2ccc(Cl)cc2)cs1	7.0	-10.8
C=CCNC(=O)c1cc(C)on1	12.0	nt
O=C(O)c1ccc(Cn2cnc3ccccc32)cc1	nt	2.0
O=C(Nc1sc2c(c1C(=O)O)CCCC2)c1ccc(Br)cc1	11.0	2.5
CCn1c2ccccc2c2cc(N)ccc21	-3.0	nt

More results:
SMILES	Sa helicase inh	MgrA DNA FP
CCc1cccc2c(C(=O)COC(=O)/C=C/c3ccco3)c[nH]c12	12.0	nt
COc1ccc(N2CCN(C(=O)CCCN3C(=O)CSC3=S)CC2)cc1	-33.0	nt
O=c1[nH]cnc2c1sc1nc(N3CCCCC3)c3c(c12)CCCC3	8.0	nt
COC(=O)c1cn(NC(=O)C2CCC(C)CC2)c(=O)c2ccccc12 (stereo not drawn)	22.0	nt
CC(=O)Nc1ccc(S(=O)(=O)Nc2ccccc2C(=O)NC(C)(C)C)cc1	20.0	0.3
COc1ccc(/C=C2\SC(=O)N(CC(N)=O)C2=O)cc1	-15.0	nt
CC(C)COP(=O)(c1ccc(N(C)C)cc1)C(O)c1ccc(N(C)C)cc1 (stereo not drawn)	18.0	nt
O=C(CSc1ncnc2c1oc1ccccc12)NCCc1ccccc1	12.0&7.0	nt

A draw from above in order of SMILES length, high to low:
SMILES	Sa helicase inh	MgrA DNA FP
O=C1S/C(=C2\C(=O)N(Cc3ccccc3)c3ccccc32)C(=O)N1Cc1ccccc1	nt	-0.8
O=C(COCc1cc(-c2ccco2)on1)N1CCCC1	-10.0	nt
Cn1c(=O)c2conc2n(C)c1=O	6.0	nt

Four compounds drawn at random from those above, as already listed:
SMILES	Sa helicase inh	MgrA DNA FP
CC(C)COP(=O)(c1ccc(N(C)C)cc1)C(O)c1ccc(N(C)C)cc1 (stereo not drawn)	18.0	nt
CCc1cccc2c(C(=O)COC(=O)/C=C/c3ccco3)c[nH]c12	12.0	nt
COc1ccc(N2CCN(C(=O)CCCN3C(=O)CSC3=S)CC2)cc1	-33.0	nt
O=C(CSc1ncnc2c1oc1ccccc12)NCCc1ccccc1	12.0&7.0	nt

Source: PubChem (ICCB-Longwood Screening Facility, Harvard Medical School)
